Beta apoptosis = inhibitors of cytokine-induced beta cell apoptosis, primary screen, luminescence; protection from apoptosis, % (concentration not given with the values); actives 0.8% (n = 300,000); INS-1E cytokine-induced death, ATP luminescence, 48 h; percent of positive-control rescue, neutral wells zero;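 active = all replicates at 75% or more, or half of them and the mean; inconclusive = half reach 75% but not the mean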;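 note: 0% = cytokine-treated negative control wells and 100% = positive control rescue; higher means more ATP so stronger rescue from cytokine killing; wells of about 40 µL received 100 nL stock; the first replicate is given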
Calb FLC = C. albicans growth inhibition with fluconazole, primary screen, CaCi-2 strain, Alamar Blue fluorescence. C. albicans CaCi-2 (fluconazole-resistant clinical isolate) + fluconazole, 48 h. growth inhibition, % (no concentration beside the values). actives 0.57% (n = 300,000);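 active = most replicates above 75%; inconclusive = exactly half above 75%; inactive = most below 75%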;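 note: all wells also contain fluconazole at 8 µg/ml as a sub-toxic cotreatment; 0% = median of DMSO wells and 100% = median of geldanamycin control wells; wells of about 8 µL received 7.5 nL stock; the first replicate is given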
Ecoli rRNA inh = reduced GFP signal of wild-type E. coli, primary screen, bacterial rRNA inhibitor project, GFP/RFP fluorescence, OD600, single point; actives 1.6% (n = 350,000); E. coli WT GFP vs humanized-ribosome RFP mutants, 24 h; active compounds read low; DMSO median 0, no signal -100; AID 720706, 2013; GFP signal change (wild-type ribosome), % (test concentration not listed);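 active = significant combined selectivity score with lowered wild-type GFP, culture density cut under 30%, mutant RFP and density less affected; inactive = any of these conditions unmet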; note: one replicate is shown; some compounds called inactive have numbers as strong as hits
LANA-H2A inh = blockers of LANA interaction with H2A/H2B – biochemical, FP readout, HTS, primary screen. Protein LANA1 (Human herpesvirus 8 type P (isolate GK18)), Q9QR71. cell-free LANA-H2A/H2B peptide, fluorescence polarization. actives 0.6% (n = 320,000). inhibition, % (concentration not given with the values); in the data active = inhibition mostly above about 10%, no sharp cut-off; inactive = mostly below about 6.7%;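 note: stock transfer was 7.5 nL into about 10 µL; 0% = median of vehicle wells and 100% = median of positive control wells; one replicate is shown; the record names a cut of 25% in any replicate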
ALR H2O2 inh = inhibitors of human ALR sulfhydryl oxidase, primary screen, biochemical, H2O2 detection, HRP-luminol luminescence, single point | FAD-linked sulfhydryl oxidase ALR (Homo sapiens), P55789 | purified ALR, DTT oxidation | inhibition, % (concentration not given with the values) | actives 3.8% (n = 290,000);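 active = mean and each replicate at 75% or more; inconclusive = only one of the two met; inactive = neither met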;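 note: stock transfer was 7.5 nL into about 7.5 µL; 0% = neutral wells and 100% = wells with inactivated enzyme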
Target sequence (P55789 whole entry, looked up): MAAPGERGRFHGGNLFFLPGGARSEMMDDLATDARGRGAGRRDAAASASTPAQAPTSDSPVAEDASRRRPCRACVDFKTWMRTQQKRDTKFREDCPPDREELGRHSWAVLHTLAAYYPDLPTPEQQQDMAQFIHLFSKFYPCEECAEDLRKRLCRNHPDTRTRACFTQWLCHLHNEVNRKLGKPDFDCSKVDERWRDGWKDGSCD
T cruzi inh = inhibitors of intracellular T. cruzi growth, primary screen, luminescence, NIH3T3 host cells. inhibition, % (concentration not given with the values). actives 1.4% (n = 300,000). AID 1885, 2009. T. cruzi beta-gal in NIH3T3, 90 h;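 active = mean inhibition across valid replicates above about 55%, limit read from the data; inconclusive = mean below that limit but half or more replicates reach it; inactive = mean below it, under half of replicates reach it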;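 note: signal also drops with host cell toxicity which is not excluded here; 0% = plate median of DMSO wells and 100% = zero luminescence signal; higher percent means less beta-gal luminescence so fewer parasites; stock transfer was 50 nL into about 50 µL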
A1 inh = caspase 3/7 activation in MEF A1-2A-BIM cells, primary screen, A1 inhibitor project, cell-based, luminescence, HTS; Caspase-Glo 3/7 luminescence, 3 h; percent of clofoctol response, vehicle zero; actives 0.066% (n = 330,000); caspase activation, % (no concentration beside the values);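 active = over half of replicate activation scores above 10%, or exactly half above 10 with the replicate mean above 10; inconclusive = replicate mean below 10 yet half the replicates above 10; inactive = over half of replicates below 10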;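 note: wells of about 30 µL received 50 nL stock; many hits fall short of the cut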
B2AR ag = beta2AR agonists driving receptor internalization, primary screen, cell-based, FAP fluorogen, flow cytometry. actives 0.43% (n = 340,000). Beta-2 adrenergic receptor (Homo sapiens), P07550. response, % (concentration not given with the values). Am2.2-beta2AR cells; reference of the scale not given here;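 active = response above a set limit, near 3 SD of response in nonfluorescent compounds, cut at about 42% in these data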;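 note: stock transfer was 100 nL into about 11 µL; a reference agonist was the positive control; negative values mostly stem from fluorescent compounds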
Target sequence (P07550 whole entry, looked up): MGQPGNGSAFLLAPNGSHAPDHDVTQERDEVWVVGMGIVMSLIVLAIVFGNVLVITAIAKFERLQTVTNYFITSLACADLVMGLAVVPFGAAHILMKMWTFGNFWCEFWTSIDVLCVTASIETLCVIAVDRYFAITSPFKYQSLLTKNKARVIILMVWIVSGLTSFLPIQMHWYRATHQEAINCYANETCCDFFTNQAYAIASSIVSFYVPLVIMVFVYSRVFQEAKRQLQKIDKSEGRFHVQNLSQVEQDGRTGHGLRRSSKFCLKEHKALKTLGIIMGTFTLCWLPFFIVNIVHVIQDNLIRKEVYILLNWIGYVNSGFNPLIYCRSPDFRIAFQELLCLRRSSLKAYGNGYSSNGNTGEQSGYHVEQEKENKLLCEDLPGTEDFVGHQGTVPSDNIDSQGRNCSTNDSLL
Ecoli rRNA inh OD600 = recorded beside Ecoli rRNA inh, whose call it bears; OD600 change, %; measured here: OD600 growth;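 optical density of the mix in the first replicate; 0 = DMSO median and -100 = no signal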
Ecoli rRNA inh RFP = also measured in Ecoli rRNA inh; calls as there; RFP signal change, %; measured here: RFP humanized mutant strains;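 first replicate; 0 = DMSO median and -100 = no signal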
* hit, by the source's call; ? = inconclusive; · = not tested or not shown; + = active, no number. Some of the compounds tested; rates above refer to the full screens.

SMILES	Beta apoptosis	Calb FLC	Ecoli rRNA inh	Ecoli rRNA inh OD600	Ecoli rRNA inh RFP	LANA-H2A inh	ALR H2O2 inh	T cruzi inh	A1 inh	B2AR ag
CCOC(=O)c1ccc(NC(=O)N2CCN(C3CCCCC3)CC2)cc1	-4	?	·	·	·	5.5	0	-1	0.5	-7
O=C(CCCC(=O)NC1CCCC1)NC1CCCC1	-6	-2	·	·	·	-2.6	-3	-10	0.1	-3
COc1ccc(C)cc1NC(=O)NNS(=O)(=O)c1ccc(NC(C)=O)cc1	0	0	0	-2	0.6	4.8	5	-11	0.7	1
COc1ccc(C2C3=C(OC(C)=O)c4ccccc4C3=Nc3c2c(=O)n(C)c(=O)n3C)cc1 (stereo unspecified)	-1	0	·	·	·	3.1	1	15	-0.6	-4
Cc1ccc(S(=O)(=O)c2cn(C)c3cc(N4CCN(C)CC4)c(F)cc3c2=O)c(C)c1	-6	-2	4	-1	0.8	-0.1	-3	5	0.1	3
CC1CC(C)CN(S(=O)(=O)c2ccc(NC(=O)C3COc4ccccc4O3)cc2)C1 (stereo unspecified)	-4	8	-3	-17	-2.6	3.1	·	-2	-0.7	2
CN(C)c1cccc2c1c(NC(=O)c1ccc(F)cc1)nn2C	-2	-1	5	4	2.9	-2.9	15	4	0.2	3
COc1ccc(C(C)NC(=O)C2C(=O)NC3(C)CC2c2ccccc2O3)cc1 (stereo unspecified)	0	-5	·	·	·	5.0	·	-1	1.8	1
O=C(COc1ccc(S(=O)(=O)N2CCOCC2)cc1)Nc1ccccc1F	·	10	0	8	1.2	-1.4	2	2	0.5	3
CSCCC(NC(=O)COc1ccccc1)C(=O)O (stereo unspecified)	-1	4	9	-3	-3.6	2.0	7	-10	-0.8	0
CSC(=NC#N)N1CCN(c2ccccc2)CC1	1	20	·	·	·	0.2	76*	1	0.5	0
Cc1cc(OCCN2CCCCCC2)ccc1[N+](=O)[O-]	9	?	·	·	·	4.5	-5	41	0.6	4
CCCC(C)C(=O)OCC(=O)Nc1c(Br)cc(C)cc1Br (stereo unspecified)	-2	?	6	1	-4.5	1.2	1	?	1.0	4
O=[N+]([O-])c1ccc(N2CCN(S(=O)(=O)c3ccccc3)CC2)cc1NCc1cccnc1	3	-2	·	·	·	-2.8	5	20	-0.2	13
CN(C)/C=C/C(=O)c1nn(-c2ccc(F)cc2)ccc1=O	·	-11	15	14	2.9	1.4	-1	·	2.2	-3
COc1ccc(-c2[nH]ncc2CNCCCSC)cc1F	-4	3	3	14	6.7	-0.7	·	-14	0.3	-15
CCC(CCC(=O)NNC(=O)Cc1ccc([N+](=O)[O-])cc1)C(=O)O (stereo unspecified)	-4	2	10	9	5.6	2.2	-6	5	0.4	-7
CCOC(=O)Cc1csc(NC(=O)CCC(=O)O)n1	-7	4	·	·	·	6.2	-3	-26	1.4	-2
O=C(c1cccc(C(F)(F)F)c1)c1c[nH]c(C(=O)NCC2CCCO2)c1 (stereo unspecified)	0	27	2	0	-7.9	+	-3	0	-1.3	4
COc1ccc(-n2c(SCC3CNC(=O)O3)nnc2-c2ccc(Cl)cc2)cc1 (stereo unspecified)	6	2	1	-20	-3.7	-1.2	-19	-5	0.6	2

Two of the compounds above, in markdown:
| molecule | Beta apoptosis | Calb FLC | Ecoli rRNA inh | Ecoli rRNA inh OD600 | Ecoli rRNA inh RFP | LANA-H2A inh | ALR H2O2 inh | T cruzi inh | A1 inh | B2AR ag |
| --- | --- | --- | --- | --- | --- | --- | --- | --- | --- | --- |
| CSC(=NC#N)N1CCN(c2ccccc2)CC1 | 1 | 20 | · | · | · | 0.2 | 76* | 1 | 0.5 | 0 |
| Cc1cc(OCCN2CCCCCC2)ccc1[N+](=O)[O-] | 9 | ? | · | · | · | 4.5 | -5 | 41 | 0.6 | 4 |

Further structures.
SMILES	Beta apoptosis	Calb FLC	Ecoli rRNA inh	Ecoli rRNA inh OD600	Ecoli rRNA inh RFP	LANA-H2A inh	ALR H2O2 inh	T cruzi inh	A1 inh	B2AR ag
O=C(O)CCN1C(=O)CC2(CCCCC2)C1=O	2	6	·	·	·	3.3	3	-54	0.4	-3
O=C(NNS(=O)(=O)c1ccc(Br)cc1)NC1CCCCC1	-2	18	·	·	·	1.3	·	-12	0.4	6
COC(=O)c1cc(C#N)c(Oc2ccc(F)cc2)nc1C	5	7	·	·	·	2.5	-8	-1	-0.7	0
O=C(CNC(=O)C1COc2ccccc2O1)N/N=C/c1cc(Br)c(O)c(Br)c1 (stereo unspecified)	-4	0	-8	-9	8.2	-2.8	66	12	-0.9	16
COCc1cc(C)nc(N2CCN(c3ccccc3)CC2)c1C#N	4	-4	·	·	·	6.2	95*	-12	0.8	1
Cc1cc(C)n(CCOc2nonc2N)n1	1	-9	·	·	·	-0.6	-23	-10	0.6	1
CC(C)NCc1nnc(-c2ccc(Cl)cc2)o1	5	-4	5	0	4.5	-0.7	-11	-5	-0.6	-1
O=C(CCC(=O)N1CCOc2ccccc21)N1CCN(c2ccccc2)CC1	-10	-8	7	-5	4.0	2.5	98*	-14	-2.2	10
CC1(C)Cc2c(sc3nc(NCCN4CCOCC4)n4ncnc4c23)CO1	4	-4	·	·	·	-4.0	0	0	-0.1	-4
O=C(CN1CCC(Cc2ccccc2)CC1)Nc1ccc2c(c1)OCCO2	-2	-20	·	·	·	-2.2	7	26	-0.3	·
CC(C)C(=O)Nc1cccnc1	-7	-5	3	6	-0.9	-17	-2	-13	0.2	6
O=C(Nc1ccc(Cl)cc1)Nn1cnc2ccccc2c1=O	-4	1	-2	-15	0.4	2.4	-2	5	0.0	1
CC(C)C[C@H](NC(=O)c1nc[nH]c1C(=O)N1CCC(C)CC1)C(=O)OCc1ccccc1	-4	4	2	-3	20	0.7	2	-11	-0.7	4
COCC(=O)Nc1nc(-c2ccc(-c3ccccc3)cc2)cs1	1	-8	1	0	3.5	-3.8	-3	-2	-7.3	-3
Cn1c(N)c(C(=O)COC(=O)c2cccc(S(=O)(=O)N3CCOCC3)c2)c(=O)n(C)c1=O	-1	·	-5	0	-1.5	4.0	-3	·	-0.9	1
N#Cc1c(NC(=O)CCC(=O)O)sc2c1CCCCC2	-5	-5	4	3	-0.1	2.1	4	-7	1.0	20
O=C(NCCc1c[nH]c2ccccc12)C(=O)NCC1OCCCN1S(=O)(=O)c1cccs1 (stereo unspecified)	-5	-1	1	-2	2.5	0.4	-5	-3	0.1	11
Cc1ccc(N/C(N)=N/c2nc(C)cc(N3CCCCC3)n2)c(C)c1	111*	14	-35	-51	-5.5	1.0	6	69*	-0.1	26
COC(=O)c1cccc(NC(=O)C23CC4CC(C2)CC(n2cncn2)(C4)C3)c1	-4	11	·	·	·	4.5	-7	-2	0.0	4
CCn1c(SCC(=O)N2CCC(C)CC2)nc2c(c1=O)SC(C)C2 (stereo unspecified)	-1	-6	-10	-13	-5.8	1.3	12	-15	-0.1	-8
Nc1ccc(C(=O)OCC(=O)Nc2cc([N+](=O)[O-])ccc2F)cc1	-4	-72	12	10	3.6	-4.5	-4	-6	-0.8	-5
COc1ccccc1-c1nc2s/c(=C\c3cccs3)c(=O)n2n1	-10	-3	·	·	·	-2.5	9	4	-0.3	0
COc1ccc(N(CC(=O)N/N=C/c2ccc(-c3ccc([N+](=O)[O-])cc3)o2)S(=O)(=O)c2ccc(C)cc2)cc1Cl	-6	5	·	·	·	5.2	·	52	-0.4	23
O=C(COC(=O)Cn1cnc2ccccc2c1=O)Nc1ccc(Cl)cc1	-5	·	4	-1	1.7	-3.0	0	-24	0.0	2
Cc1ccccc1-c1ccc(=O)n(CC(=O)Nc2ccc(C(=O)N3CCCC3)cc2)n1	-1	-1	·	·	·	4.8	-14	-8	0.7	-5
CC(C)C(=O)Nc1c2c(nc3c1CCC3)CCCC2	-3	1	12	14	-0.9	-4.6	-5	-3	0.7	4
COCCOC(=O)C1=C(C)NC(=O)NC1C1CC=CCC1 (stereo unspecified)	-4	-12	6	2	-2.6	-0.2	-4	-12	2.8	5
COc1cc([N+](=O)[O-])ccc1-c1ccc(/C=N/NC(=O)OC(C)(C)C)o1	2	-7	17	6	4.4	1.6	-19	8	1.3	-1
CCOC(=O)c1cnn(-c2ccccc2)c1NC(=O)CCl	-4	-7	8	9	0.1	-1.2	·	-3	0.3	4
Cc1cc(NS(=O)(=O)c2ccc(NC(=S)NC(=O)/C=C/c3ccccc3)cc2)no1	-3	-4	17	15	0.9	5.4	·	-5	1.6	15
CC1CCC/C(=N\NC(=O)c2ccncc2)C1 (stereo unspecified)	1	-10	27	20	3.8	0.4	18	-9	0.5	-4
COc1ccccc1CNc1ccc(C(=O)O)cc1	2	-8	·	·	·	3.3	-5	-10	-1.9	2
O=C(Nc1ccccc1)C(=O)c1cn(CC(=O)N2CCCCC2)c2ccccc12	3	35	·	·	·	0.4	-3	22	1.7	12
O=C(CCN1C(=O)COc2ccccc21)NCCN1CCOCC1	-2	-36	7	5	1.2	0.4	-1	1	0.3	5
Cc1cc(OCC(=O)O/N=C(\N)Cc2cccs2)ccc1Br	2	-2	-24*	-14*	-6.6*	-1.6	20	3	0.5	6
CC(C)c1ccc(N(CC(=O)NCc2ccc(F)cc2)C(=O)c2snc(C(N)=O)c2N)cc1	13	-8	7	18	3.4	1.0	·	7	0.1	0
CCc1ccc(OCC(=O)NCC(c2ccc(Cl)cc2)N2CCCCC2)cc1 (stereo unspecified)	12	15	-57	-80	-18	-1.0	1	12	0.8	-6
COc1ccccc1CNC(=O)COC(=O)c1cc(C)nc2ccccc12	1	·	2	1	0.5	0.1	0	·	-1.3	-9
CCN(CC)C(=O)CSc1ccc(C(F)(F)F)cc1[N+](=O)[O-]	-4	-18	·	·	·	-0.5	-8	-3	0.6	-34
CN(C)c1ccc(/C=N/Nc2ccc(-n3ccnc3)nn2)cc1	13	-11	·	·	·	1.4	94*	0	0.5	-2
CC/C(C)=N/Nc1nc2c(c(=O)[nH]c(=O)n2C)n1CCc1ccccc1	-4	5	12	18	4.9	2.0	6	1	1.5	-3
Cc1ccc(NC(=O)CSc2nc3c([nH]c4ccccc43)c(=O)n2C)cc1	55	-5	10	10	1.9	-3.7	7	11	-0.1	-25
COc1ccccc1/C=C1\SC(=S)N(C(C(=O)O)c2ccccc2)C1=O (stereo unspecified)	1	9	-37*	-16*	11*	-0.7	51	-14	-0.3	5
O=C(Nc1nonc1NC(=O)C1CCCCC1)C1CCCCC1	1	13	·	·	·	5.5	-20	-3	-0.2	-13
CCN1CCN(c2ccc(NC(=O)COc3ccccc3Cl)cc2)CC1	-1	-2	·	·	·	5.1	-3	12	1.1	-9

Screens deposited in PubChem by several laboratories.
